ALR H2O2 inh = human ALR oxidase inhibition via reduced H2O2; P55789; purified ALR, DTT oxidation, H2O2 HRP-luminol luminescence; inhibition, % (test concentration not listed); hit rate 3.8% among 290,000;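 active = mean and each replicate at 75% or more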;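 note: stock transfer was 7.5 nL into about 7.5 µL; 0% = neutral wells and 100% = wells with inactivated enzyme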
Target sequence (P55789 whole entry, looked up): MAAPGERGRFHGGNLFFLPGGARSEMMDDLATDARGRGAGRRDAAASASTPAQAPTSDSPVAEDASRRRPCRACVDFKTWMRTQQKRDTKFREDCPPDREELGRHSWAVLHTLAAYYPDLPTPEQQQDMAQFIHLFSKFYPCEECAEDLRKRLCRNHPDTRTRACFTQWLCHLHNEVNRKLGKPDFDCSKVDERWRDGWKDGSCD
UCH37 DUB inh = human UCH37 deubiquitinating enzyme inhibition | purified proteasome/UCH37, Ub-AMC cleavage fluorescence | inhibition, % (test concentration not listed) | hit rate 0.33% among 330,000 | AID 588478;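 active = mean of two replicates above 20%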;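 note: 0% = compound-free wells with enzyme and 100% = wells lacking proteasome; stock transfer was 100 nL into about 20 µL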
Target sequence (Q9Y5K5 whole entry, looked up): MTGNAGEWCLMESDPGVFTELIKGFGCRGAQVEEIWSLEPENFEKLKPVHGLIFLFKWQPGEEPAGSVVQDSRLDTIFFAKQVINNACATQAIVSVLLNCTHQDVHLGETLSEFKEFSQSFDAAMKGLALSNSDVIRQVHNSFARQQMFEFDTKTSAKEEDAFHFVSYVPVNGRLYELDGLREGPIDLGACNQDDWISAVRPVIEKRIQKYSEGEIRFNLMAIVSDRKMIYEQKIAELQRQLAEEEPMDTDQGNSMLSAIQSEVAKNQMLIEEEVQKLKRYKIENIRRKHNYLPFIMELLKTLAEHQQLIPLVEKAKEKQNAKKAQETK
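system = Proteasome-associated human UCH37 deubiquitinase | amount = 0.15 nM proteasome as dispensed | medium = pH 7.4 Tris-HCl (50 mM) with ovalbumin, ATP-MgCl2, DTT | incubation = 30 min preincubation with enzyme, 25 min cleavage at room temperature | detection = AMC fluorescence 355/460 nm | read-out basis = percent inhibition | controls = no-proteasome and no-compound wells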
E coli growth = E. coli growth inhibition. Escherichia coli growth, OD600, 23 h; stronger effect = lower value. OD600 absorbance (test concentration not listed). hit rate 0.21% among 330,000;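 active = OD600 absorbance below the run mean of sample wells minus 3.6 SD, in any replicate, cut at about 0.56 in these data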;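 note: stock transfer was 300 nL into about 60 µL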
Beta2AR agonist = activates human beta-2 adrenergic receptor causing internalization; P07550; Am2.2-beta2AR cells, FAP receptor internalization, flow cytometry; reference of the scale not given here; response, % (no concentration beside the values); hit rate 0.43% among 340,000; AID 504454;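 active = response above a set limit, near 3 SD of response in nonfluorescent compounds, cut at about 42% in these data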;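 note: stock transfer was 100 nL into about 11 µL; a reference agonist was the positive control; negative values mostly stem from fluorescent compounds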
FGF22 binding = binders of recombinant human FGF22 by thermal shift | SYPRO orange fluorescence; percent of sucrose octasulfate shift, DMSO zero | hit rate 1.5% among 340,000 | Q9HCT0 | AID 651658 | calls only at 9.99 µM;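 active = melting point raised past a set limit in the mean and every replicate; three in four hits are not shown here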
Target sequence (Q9HCT0 whole entry, looked up): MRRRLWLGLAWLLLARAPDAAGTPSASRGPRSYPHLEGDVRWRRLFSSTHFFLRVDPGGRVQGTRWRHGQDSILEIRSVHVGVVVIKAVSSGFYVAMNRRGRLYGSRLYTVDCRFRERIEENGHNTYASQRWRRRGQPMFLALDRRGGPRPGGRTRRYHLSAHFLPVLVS
rRNA inh HTS = inhibitors of bacterial rRNA selective over humanized ribosomes. E. coli WT GFP vs humanized-ribosome RFP mutants, fluorescence, 24 h; stronger effect = lower value; DMSO median 0, no signal -100. GFP signal change (wild-type ribosome), % (concentration not given with the values). hit rate 1.6% among 350,000;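 active = significant combined selectivity score with lowered wild-type GFP, culture density cut under 30%, mutant RFP and density less affected; inactive = any of these conditions unmet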; note: one replicate is shown; some compounds called inactive have numbers as strong as hits
HNF4A DNA FP = change in binding of human HNF4 alpha to DNA; hit rate 0.3% among 360,000; HNF4a-FITC DNA binding, fluorescence polarization, 1 h; activity change, % at 10 µM; in the data active = activity change above about 30%, passing the limit was not always enough;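 note: controls were the assay level and a saturating level of protein; the project sought stronger binding though the title names inhibitors; some compounds called inactive have numbers as strong as hits; positive values seem to mean higher polarization but the record does not say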
rRNA inh HTS OD600 = second read-out of rRNA inh HTS, no call of its own (marks repeat the call); OD600 change, %; measured here: OD600 growth;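 optical density of the mix in the first replicate; 0 = DMSO median and -100 = no signal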
rRNA inh HTS RFP = second read-out of rRNA inh HTS, no call of its own (marks repeat the call); RFP signal change, %; measured here: RFP humanized mutant strains;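 first replicate; 0 = DMSO median and -100 = no signal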
* marks the source's active call; other numbers are inactive results; i = inactive; . = no result given.

SMILES	ALR H2O2 inh	UCH37 DUB inh	E coli growth	Beta2AR agonist	FGF22 binding	rRNA inh HTS	rRNA inh HTS OD600	rRNA inh HTS RFP	HNF4A DNA FP
CNNC(=S)Nc1ccc(Cl)cc1	-1	3.8	0.69	3	i	-23	-38	-1.2	5.5
CS(=O)(=O)c1ccccc1-c1csc(N2CCC(C(N)=O)CC2)n1	8	5.4	.	.	i	1	15	-5.3	.
COC(CNC(=O)Cn1ncc2ccsc2c1=O)OC	-1	2.5	0.7	1	.	.	.	.	-1.7
c1cncc(C2OCC3(CO2)COC(c2cccnc2)OC3)c1 (stereo not drawn)	-7	-1.5	0.66	-5	i	0	-4	-0.6	-2.0
CC(C)NCC1CCc2cc(CO)c([N+](=O)[O-])cc2N1 (stereo not drawn)	.	4.6	0.67	-3	i	.	.	.	-0.8
O=C(Nc1ccc([N+](=O)[O-])c(NC(=O)C2CCCO2)c1)C1CCCO1 (stereo not drawn)	-10	11	0.63	-1	.	.	.	.	-5.1
CCN(CC)S(=O)(=O)c1ccc(N2CCCCC2)c(C(=O)Nc2ccccc2N2CCOCC2)c1	-21	-1.1	0.72	2	.	.	.	.	-3.4
CS(=O)(=O)N(CC(=O)Nc1ccccc1C(=O)N1CCOCC1)c1cccc([N+](=O)[O-])c1	-4	4.3	0.7	-9	i	-2	11	-2.0	1.1
COc1ccc(NC(=O)COC(=O)/C=C/c2cnc3ccccc3n2)cc1	21	6.5	0.73	9	i	2	7	5.5	-1.3
COc1cc(NC(=O)C(=O)N2CCN(C)CC2)c(OC)cc1Cl	-2	1.0	0.66	2	i	8	7	2.6	-6.4
COc1cc(/C=N/n2nnnc2N)ccc1OC(C)=O	6	.	.	6	i	8	11	-1.6	-1.5
COc1ccc(S(=O)(=O)N[C@@H](CC(C)C)C(=O)O)cc1	-3	0.7	0.65	-1	.	.	.	.	-1.4
CC(Sc1ncnc2sccc12)C(=O)Nc1ccc(S(N)(=O)=O)cc1 (stereo not drawn)	-4	1.7	0.67	-5	i	-9	-4	4.8	0.2
COC(=O)N/N=C/c1ccccc1	-5	.	.	4	.	10	3	-0.1	7.8
COc1cc(OC)cc(C(=O)NCC(C)NC(=O)c2cc(OC)cc(OC)c2)c1 (stereo not drawn)	-29	0.3	0.68	-2	i	-2	-3	5.0	-0.4
CCCCn1nc(C(=O)Nc2cccc(C(=O)NC3CC3)c2)c2ccccc2c1=O	0	1.3	0.7	-3	i	-17	-36	-2.1	2.0
CCC(C(=O)OCC(=O)Nc1c(Cl)cccc1Cl)c1ccccc1 (stereo not drawn)	-27	-1.0	0.71	1	i	-12	-10	2.4	0.4
CN(C)S(=O)(=O)c1cccc(NC(=O)c2ccc(OC(F)(F)F)cc2)c1	-3	5.6	0.64	-3	i	0	-2	1.9	-1.4
O=C(NN=C(Cc1ccccc1)Cc1ccccc1)c1ccccc1O	-1	-6.7	0.69	9	i	-50	-80	-17	-2.8
Cc1ccc(C)c(C(C)NC(=O)CC#N)c1 (stereo not drawn)	-4	3.1	0.69	2	.	-2	-3	-0.7	-3.0
CSCCC(NS(=O)(=O)c1ccc2c(c1)oc(=O)n2C)C(=O)NC1CCN(Cc2ccccc2)CC1 (stereo not drawn)	-10	4.4	0.68	-13	i	5	12	0.8	2.6
CCCCCCN1C[C@@H](O)[C@H](n2cc(COC(=O)c3ccccc3)nn2)C[C@@H]1c1ccc(C)cc1	.	.	.	.	i	13	9	5.8	0.4
S=C(NCCCCc1ccccc1)NCc1ccccc1	-17	1.2	0.69	4	i	-57	-76	-17	0.4
O=C(NCCCn1ccnc1)Nc1ccc(Cl)cc1Cl	2	2.1	0.69	-1	.	.	.	.	2.7
Cc1nc2scc(C)n2c(=O)c1S(=O)(=O)N1CCN(c2ccc([N+](=O)[O-])cc2)CC1	-9	2.6	0.7	8	i	4	1	0.5	-0.4

Of the compounds above, 2 have a thiophene ring, fused or not:
SMILES	ALR H2O2 inh	UCH37 DUB inh	E coli growth	Beta2AR agonist	FGF22 binding	rRNA inh HTS	rRNA inh HTS OD600	rRNA inh HTS RFP	HNF4A DNA FP
COC(CNC(=O)Cn1ncc2ccsc2c1=O)OC	-1	2.5	0.7	1	.	.	.	.	-1.7
CC(Sc1ncnc2sccc12)C(=O)Nc1ccc(S(N)(=O)=O)cc1 (stereo not drawn)	-4	1.7	0.67	-5	i	-9	-4	4.8	0.2

The list goes on:
SMILES	ALR H2O2 inh	UCH37 DUB inh	E coli growth	Beta2AR agonist	FGF22 binding	rRNA inh HTS	rRNA inh HTS OD600	rRNA inh HTS RFP	HNF4A DNA FP
Cc1ccc(C(=O)CC(c2cccs2)S(=O)(=O)c2ccc(C)cc2)cc1 (stereo not drawn)	1	3.6	0.67	3	i	9	7	-2.9	-0.5
Cc1cccc(C(=O)NCCc2csc(C)n2)c1	-21	0.7	0.71	-6	i	2	9	0.1	-0.8
CC(=O)Nc1cccc(-c2nc3ccccc3c(=O)o2)c1	-2	1.0	0.76	-5	.	.	.	.	2.8
CCN1C(=O)[C@H]2[C@@H](c3ccc(Cl)cc3)N3C(=O)CN(Cc4ccccc4)C(=O)[C@@]3(C)[C@H]2C1=O	1	0.6	.	6	i	0	-4	-9.7	2.7
Cc1nc2nc(SCC(=O)NCc3ccco3)nn2c(C)c1Cc1ccccc1	.	1.5	0.71	-9	.	.	.	.	-0.5
CC(C)NC(=O)c1nc2c(nnn2Cc2cccc(Cl)c2)c(=O)[nH]1	-5	3.4	0.72	7	i	-18	-5	0.7	3.6
O=C(NCCc1ccc(Cl)cc1)C1=CC=CN2CCS(=O)(=O)N=C12	-2	-114	0.73	4	i	3	3	-5.3	1.9
Cc1cc(C)c(N=C2SCC(=O)N2Cc2ccco2)c(C)c1	.	3.6	0.69	-5	i	-8	-15	22	2.9
CCOC(=O)N1CCN(C(=S)Nc2ccc(C)cc2C)CC1	-22	0.5	0.68	4	i	-2	-4	-5.5	1.5
CC[C@@H](C)C(NC(=O)OC(C)(C)C)c1cn([C@@H](Cc2ccc(O)cc2)C(=O)N2CCN(C(=O)OC(C)(C)C)CC2)nn1 (stereo partly drawn)	-32	-0.4	.	-1	.	.	.	.	-1.4
O=C(/C=C/c1ccc(OCc2ccccc2)c(OCc2ccccc2)c1)c1cccnc1	45	1.0	0.74	4	.	.	.	.	2.7
CC(=O)Nc1ccc(S(=O)(=O)NCCc2csc(C)n2)cc1	-21	6.2	0.69	-1	.	.	.	.	1.9
CCn1cc(C(=O)OCC(=O)c2cc(C)n(-c3ccccc3F)c2C)c(=O)c2ccc(C)nc21	14	2.0	0.69	7	.	.	.	.	-2.1
O=C(COC(=O)c1ccccc1SCC(=O)NC1CCCCC1)NC1CCCCC1	.	-0.2	0.65	0	.	.	.	.	2.8
COC(=O)c1ccc(OC)c(CSc2nnc(COc3ccc(Cl)cc3)o2)c1	-4	-0.3	0.66	4	.	.	.	.	-0.5
COc1ccc(S(=O)(=O)ON=C2CC(C)(C)N(C(C)=O)C(C)(C)C2)cc1	.	3.8	0.72	3	i	4	10	-1.3	-3.7
Cc1ccccc1C(=O)N1CCC(C(N)=O)CC1	-2	0.9	0.68	17	.	.	.	.	-1.9
CC(=O)c1cccc(-c2cnc3c(NC=O)cc(-c4ccc(N(C)C)cc4)cn23)c1	.	.	.	.	i	4	-3	6.9	4.1
CCC1Sc2ccccc2N(CC(=O)NCCC2=CCCCC2)C1=O (stereo not drawn)	-5	-0.4	0.68	-2	.	.	.	.	-3.9
CC(=O)c1ccc2oc3ccccc3c(=O)c2c1	-10	-1.1	0.66	-3	i	23	17	-1.3	-0.7
Cc1cc(C)c(NC(=O)COC(=O)CCc2ccc(S(=O)(=O)N3CCCCC3)cc2)c(C)c1	-14	1.8	0.69	2	.	4	12	-0.6	3.0
Cc1cc(Cl)c(OCCCn2cncn2)c(Br)c1	-1	-1.7	0.74	-11	.	.	.	.	0.8
O=C(Nc1ccc(OC(F)F)cc1)Nc1cccc(C(F)(F)F)c1	2	2.3	0.53*	8	.	.	.	.	-1.6
O=C(COC(=O)c1cc2ccccc2cc1O)NCc1ccccc1	-5	2.5	0.68	-6	i	13	11	-0.8	7.2
C=CCn1c(SCCCc2ccccc2)nc2c1c(=O)[nH]c(=O)n2C	-1	0.9	0.66	14	i	0	-36	-13	5.3
Remaining list, next part
SMILES	ALR H2O2 inh	UCH37 DUB inh	E coli growth	Beta2AR agonist	FGF22 binding	rRNA inh HTS	rRNA inh HTS OD600	rRNA inh HTS RFP	HNF4A DNA FP
COC(=O)c1ccc(CNC(=O)c2ccc(COc3ccccc3)cc2)cc1	.	3.2	0.71	-14	.	.	.	.	0.8
C=CCNC(=O)c1sccc1Oc1ccc(F)cc1[N+](=O)[O-]	-19	0.8	0.68	-5	.	-2	-9	-4.1	1.1
N=c1sccn1CC(=O)Nc1cc(Cl)ccc1Oc1ccccc1	2	3.1	0.66	-11	.	.	.	.	-2.1
Cc1cc(C)cc(OC(=O)CS(=O)c2ccc(C(F)(F)F)cc2[N+](=O)[O-])c1 (stereo not drawn)	61	3.6	0.66	52*	.	.	.	.	-0.9
CC(CCN1CCN(c2ccc(F)cc2)CC1)c1ccccc1 (stereo not drawn)	36	0.4	0.56	-1	i	0	-15	1.4	2.0
CC(=O)Cn1cnc2scc(-c3ccc(C)c(C)c3)c2c1=O	7	6.2	0.67	-5	i	-13	-38	-2.6	3.2
NC(=O)N/N=C/c1ccccc1OCc1cccc2ccccc12	-11	.	.	-4	i	9	9	-1.7	4.7
Cc1ccc(CN(C(=O)c2cc3ccccc3oc2=O)C2CCS(=O)(=O)C2)cc1 (stereo not drawn)	1	-1.6	0.75	-13	.	.	.	.	2.8
Cc1nc(Cl)cc(N/N=C/c2ccc(O)cc2)n1	99*	.	.	2	i	2	-2	-0.6	-0.4
O=C(NNc1nc(-c2ccc(Br)cc2)cs1)c1ccco1	-10	2.5	0.64	-1	i	-29	-30	-5.0	6.8
O=C(Nc1ccc(Cl)cc1)C1CCN(C(=O)NC2CCCCC2)CC1	-6	3.0	0.73	-2	.	.	.	.	-1.0
CCOC(=O)c1ccc(NC(=O)NC(C)C2CCCO2)cc1 (stereo not drawn)	5	1.9	0.74	8	.	.	.	.	-1.5
COc1cc(NC(=O)c2ccc(-c3ccc(F)c(F)c3)c3ccoc23)cc(OC)c1OC	.	.	.	.	i	-1	5	-0.7	4.0
CCOc1ccccc1CNC(=O)c1cc2oc3ccccc3c2n1CC	.	-11	0.74	-4	.	.	.	.	-4.6
CCOC(=O)C(NCCc1ccccc1)(NC(=O)CC)C(F)(F)F (stereo not drawn)	-14	4.6	0.68	2	i	3	-14	0.7	1.3
Cc1ccc2oc(-c3cccc(NC(=S)NC(=O)c4cccs4)c3)nc2c1	-2	5.3	0.71	1	i	-5	5	-5.0	0.7
CC(C)CC1=C/C(=C/c2ccc(-c3ccccc3)o2)C(=O)O1	43	-54	0.7	-2	i	.	.	.	-17
CC(=O)Nc1ccc(NC(=O)c2cc(-c3ccccc3)nc3ccccc23)cc1	-17	-20	0.69	0	i	0	11	-6.9	2.9
CC(CCc1ccccc1)NC(=O)CCCn1ncn2c(cc3occc32)c1=O (stereo not drawn)	1	-2.1	0.67	-12	i	-5	-11	1.1	2.9
CCC(=O)Nc1c2c(nn1-c1ccc(OC)cc1)CSC2	0	2.7	0.76	0	i	1	1	0.0	3.9
COc1ccc2c(C)cc(SCC(=O)NCC3CCCO3)nc2c1 (stereo not drawn)	.	-1.6	0.65	-4	i	-23	-13	-13	0.6
CCN(CC)S(=O)(=O)c1ccc(NC(=O)CC(NC(C)=O)c2ccccc2)cc1 (stereo not drawn)	-1	4.7	0.71	9	.	.	.	.	-1.5

From PubChem

These rows are one share of the data, so the mix of outcomes need not match the whole.
